High-throughput results: PubChem, several laboratories
AHR act = activates the human aryl hydrocarbon receptor | AID 2796 | AHR-responsive luciferase reporter cells, luminescence | activation, % at 5 µM | hit rate 2.5% among 320,000; in the data active = activation above about 47%;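 also: 0% = vehicle wells and 100% = reference agonist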
Target sequence (P35869 whole entry, looked up): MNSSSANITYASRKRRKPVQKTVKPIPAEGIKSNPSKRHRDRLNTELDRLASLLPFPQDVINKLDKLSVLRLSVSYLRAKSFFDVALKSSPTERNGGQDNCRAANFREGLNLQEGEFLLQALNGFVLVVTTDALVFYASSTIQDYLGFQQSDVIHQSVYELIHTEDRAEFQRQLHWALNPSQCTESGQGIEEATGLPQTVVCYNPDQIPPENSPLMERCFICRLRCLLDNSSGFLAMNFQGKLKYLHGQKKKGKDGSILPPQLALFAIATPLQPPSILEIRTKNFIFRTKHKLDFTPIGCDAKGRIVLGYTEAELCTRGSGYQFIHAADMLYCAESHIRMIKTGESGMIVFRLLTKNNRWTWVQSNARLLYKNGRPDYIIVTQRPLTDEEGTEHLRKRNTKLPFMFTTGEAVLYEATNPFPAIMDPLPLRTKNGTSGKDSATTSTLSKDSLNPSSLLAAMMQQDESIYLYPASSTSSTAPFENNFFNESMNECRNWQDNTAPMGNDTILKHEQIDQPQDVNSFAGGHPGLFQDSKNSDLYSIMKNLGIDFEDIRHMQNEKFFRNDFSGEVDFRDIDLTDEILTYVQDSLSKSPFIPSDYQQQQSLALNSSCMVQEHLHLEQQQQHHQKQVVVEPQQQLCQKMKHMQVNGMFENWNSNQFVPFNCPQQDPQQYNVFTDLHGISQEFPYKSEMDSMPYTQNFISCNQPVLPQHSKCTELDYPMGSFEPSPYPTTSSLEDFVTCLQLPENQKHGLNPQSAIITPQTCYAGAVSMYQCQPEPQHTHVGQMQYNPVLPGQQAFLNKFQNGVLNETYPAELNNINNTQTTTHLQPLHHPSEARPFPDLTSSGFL
MCL1-BIM inh = disrupts human MCL1 binding to BIM-BH3 peptide. hit rate 0.68% among 320,000. GST-MCL1 / FITC-Bim-BH3 fluorescence polarization. AID 2057. inhibition, % at 10.9 µM. Q07820;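 active = inhibition above the mean inhibition of all tested compounds plus 3 SD, set per campaign, cut at about 40% in these data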;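 also: 0% = DMSO wells and 100% = unlabeled Bim-BH3 peptide control; higher means more loss of mP so more displacement of Bim peptide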
BCLXL inh = blocks human Bcl-xL binding to Bim BH3 peptide; hit rate 0.7% among 320,000; GST-Bcl-xL / FITC-Bim BH3 peptide fluorescence polarization; AID 2129; inhibition, % at 10.9 µM;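 active = inhibition above the mean of all tested compounds plus 3 SD, cutoff set per campaign, cut at about 30% in these data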;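 also: 0% = DMSO wells and 100% = unlabeled Bim-BH3 peptide competitor; inhibitors lower millipolarization by displacing the labeled peptide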
Target sequence (Q07817 whole entry, looked up): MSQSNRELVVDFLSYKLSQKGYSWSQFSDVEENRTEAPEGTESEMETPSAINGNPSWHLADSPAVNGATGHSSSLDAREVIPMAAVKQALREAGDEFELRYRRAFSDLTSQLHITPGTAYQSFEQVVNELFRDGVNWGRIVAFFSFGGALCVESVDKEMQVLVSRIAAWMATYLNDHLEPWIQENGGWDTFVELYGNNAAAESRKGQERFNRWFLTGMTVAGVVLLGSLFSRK
Fam108B counter = counter-screen for RBBP9 inhibitors: inhibitors of mouse Fam108B; recombinant Fam108B, FP-Rh probe fluorescence polarization; inhibition, % at 9.51 µM; hit rate 0.33% among 300,000; AID 1947;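 active = inhibition above the screen mean inhibition plus 3 SD, computed separately per campaign, cut at about 18% in these data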;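 also: inhibitors lower polarization as less probe binds the enzyme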
PME-1 primary = blocks human protein phosphatase methylesterase 1 | Q9Y570 | recombinant PME-1, FP-Rh probe fluorescence polarization | inhibition, % at 5.9 µM | hit rate 0.53% among 320,000 | AID 2130;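 active = inhibition above the campaign mean of all compounds plus 3 SD, cut at about 26% in these data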;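 also: competitive labeling of PME-1 active site by serine hydrolase directed probe; 0% = PME-1 with DMSO and 100% = wells lacking PME-1 enzyme; inhibitors block probe labeling so polarization falls and inhibition rises; many of its hits are not listed in these tables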
pPAFAH FP inh = inhibitors of human plasma PAF acetylhydrolase (pPAFAH) | Q13093 | recombinant pPAFAH, FP-rhodamine probe fluorescence polarization | inhibition, % at 3.39 µM | hit rate 1.5% among 330,000;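 active = inhibition above the mean inhibition across the screen plus 3 SD, cut at about 25% in these data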;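 also: inhibitors block binding of the rhodamine activity-based probe so polarization drops; 0% = enzyme with DMSO and 100% = wells lacking pPAFAH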
MEX-5 binding = C. elegans MEX-5 TCR-2 RNA binding activity; MEX-5/FITC-TCR2 RNA binding, fluorescence polarization; active compounds read low; activity score (negative = inhibition of binding), % at 10 µM; Q9XUB2; hit rate 0.38% among 300,000;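 active = inhibition past about -25% in most replicates, and total fluorescence under double the plate's negative control median, limit read from the data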;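 also: 0% = DMSO and -100% = 5 µM competing unlabeled TCR2 RNA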
GLD-1 TGE inh = GLD-1-TGE RNA interaction inhibition (C. elegans) | Q17339 | purified GLD-1 + fluorescein TGE RNA, fluorescence polarization | inhibition, % at 5.96 µM | hit rate 0.44% among 320,000 | AID 2280;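 active = percent inhibition above a per-plate cutoff, the plate mean of test compounds plus 3 SD, cut at about 30% in these data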;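 also: 0% = DMSO wells with GLD-1 and probe and 100% = wells lacking GLD-1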
* = called active by the depositor; . = no result given.

SMILES	AHR act	MCL1-BIM inh	BCLXL inh	Fam108B counter	PME-1 primary	pPAFAH FP inh	MEX-5 binding	GLD-1 TGE inh
CC(=O)Nc1ccc(S(=O)(=O)Nc2nnc(Cc3ccc(Cl)cc3)s2)cc1	1.2	1.0	2.5	-5.9	-12.5	-13.6	-1.5	6.2
COc1cccc(C(=O)NCC2(c3ccccc3)CCCC2)c1	15.5	-2.3	0.1	1.5	-0.5	4.7	-0.4	-10.7
N/C(=N\OC(=O)CCCOc1ccccc1)c1ccc([N+](=O)[O-])cc1	0.3	2.4	2.0	-1.9	4.8	3.3	-2.4	-6.3
CCCc1cc(-c2n[nH]c(=S)n2C(C)c2ccccc2)cs1 (stereo not given)	0.1	-4.8	-15.1	-0.4	5.4	1.3	-1.1	0.9
C=CCN(c1ccccc1)S(=O)(=O)c1cccc(C(=O)Nc2ncccc2O)c1	10.7	7.5	4.0	-1.6	-2.5	2.7	-0.6	9.6
CC(=O)Nn1cnc2c(c1=O)C1(CCCCC1)Cc1ccccc1-2	9.9	0.6	-3.3	3.3	-7.9	4.4	-1.1	0.6
COc1cc(C(=O)OC(C)c2ccc(F)cc2)ccc1OCC(=O)N1CCOCC1 (stereo not given)	2.4	-6.7	-3.5	.	4.6	6.2	.	6.2
Nc1cc(-c2ccccc2)nn1S(=O)(=O)c1ccc(Br)cc1	3.4	-4.9	4.3	-0.3	-1.8	1.7	4.5	3.5
CCC(C(=O)c1ccc(O)cc1)c1ccccc1 (stereo not given)	3.4	3.4	1.6	-1.6	-7.5	-7.9	1.7	3.1
O=C(CNS(=O)(=O)c1cccs1)NCCc1ccc(Cl)cc1	-0.1	6.5	-9.5	-2.5	3.1	-2.3	-1.9	-5.5
N#CCCNCC1(c2ccccc2)CCCC1	4.0	-5.5	8.3	-0.1	-3.7	1.3	-1.2	-1.7
O=C(Cc1ccc(F)cc1)NC(Cc1c[nH]c2ccccc12)C(=O)O (stereo not given)	4.9	2.4	5.1	4.1	-4.9	1.0	1.5	5.3
Cc1ccc(SCC(=O)NCCc2ccc(F)cc2)cc1	0.2	3.1	2.1	4.9	-3.8	0.0	0.1	0.6
CCOC(=O)c1c(NC(=O)C(C)NCc2ccco2)sc2c1CCC(C)C2 (stereo not given)	50.6*	-5.4	-5.6	-4.1	1.6	3.5	2.5	5.3
COc1ccc(C(=O)O)cc1S(=O)(=O)Nc1ccccc1-c1ccccc1	-2.1	-6.3	-0.1	-1.7	-0.2	-1.4	0.0	6.0
O=C1COc2ccc(C(=O)CSc3ccc(Br)cc3)cc2N1	-0.1	6.9	1.7	.	20.7	9.8	.	3.8
CC(C)N(Cc1ccccc1)C(=S)NC(=O)C1(C)CC1(Cl)Cl (stereo not given)	0.7	-1.2	5.2	5.4	2.4	3.5	3.2	5.4
Cc1ccc(SCc2cn3cccnc3n2)cc1	0.6	3.4	1.7	0.7	-2.8	4.2	-0.2	6.6
O=c1[nH][nH]c(-c2ccccc2O)c1C(C[N+](=O)[O-])c1ccc(Br)cc1 (stereo not given)	15.7	5.4	3.7	3.7	-0.4	11.5	-5.8	0.9
COC(=O)c1ccccc1NC(=O)C1CC(c2ccc(F)cc2)=NO1 (stereo not given)	-2.4	3.4	0.9	-3.6	-5.9	-1.3	1.5	7.6
Cc1oc2ccc(OCc3ccc(Br)cc3)cc2c1C(=O)O	16.2	-4.5	4.5	2.3	-2.4	-10.8	-0.4	-1.3
O=C(CCSc1ccc(Cl)cc1)NC1CCCCC1	1.3	4.2	-3.4	1.3	3.2	1.3	-0.3	1.9
Cc1ccc(S(=O)(=O)n2c(N)nc3ccccc32)cc1	-1.6	9.4	4.3	-3.6	1.4	4.8	2.1	0.3
Cc1cc(C)n2cc(CSc3ccc(Br)cc3)nc2n1	0.7	1.0	2.1	-0.7	4.0	3.9	2.9	7.4
CC[C@@](C)(NS(=O)(=O)OCC(Cl)(Cl)Cl)c1ccccc1	2.3	1.1	-0.1	-2.3	-1.9	7.0	-2.5	4.5
Cc1ccc2nc(-c3cccc(Br)c3)cc(C(=O)Nn3cnnc3)c2c1	16.5	1.4	-3.4	5.6	3.0	-2.7	-0.7	12.7
COc1ccc(NC(=O)CSc2nnc(Cc3cccs3)n2C)cc1	5.7	-9.4	-2.2	0.0	2.7	-0.9	0.4	-0.7
O=C(O)CC(Cc1ccc(Cl)cc1)C(=O)NCC12CC3CC(CC(C3)C1)C2 (stereo not given)	-0.2	6.1	6.7	2.4	-1.9	-2.5	0.0	8.0
Cc1cccc(OCC(=O)NC(Cc2c[nH]c3ccccc23)C(=O)O)c1C (stereo not given)	13.8	8.4	6.7	-1.6	-0.6	6.5	-2.4	-4.1
Cc1cccc(N(C(=O)c2csnn2)C(C(=O)NC2CCCCC2)c2ccncc2)c1 (stereo not given)	3.9	9.2	4.0	0.1	-10.5	-10.0	-2.7	-5.7
O=C(O)C1=CC[C@@H](c2ccc(Cl)cc2)N(S(=O)(=O)c2ccc(Cl)cc2)C1	-1.7	0.8	5.5	-5.1	4.3	3.5	.	4.5
COc1ccc(CCNC(=O)CSc2nc3[nH]ncc3c(=O)n2-c2ccc(C)c(Cl)c2)cc1OC	.	.	.	.	.	.	2.4	.
COC(=O)/N=C(/Cc1ccc(OC)cc1)c1ccc(OC)cc1	4.5	0.1	0.3	-5.0	-7.2	2.9	-1.1	0.2
O=C(COc1ccccc1)N1CCN(c2nnc(-c3ccccc3)c3ccccc23)CC1	-1.9	5.9	-16.1	5.9	-3.0	3.1	-0.7	2.2
O=C(NCCCN1CCCC1=O)c1cccc(NS(=O)(=O)c2ccc(Br)cc2)c1	-1.4	-0.7	7.3	-6.0	1.1	10.5	2.9	9.7
CCCCC(CC)CNC(=O)C1C2C=CC(C2)C1C(=O)O (stereo not given)	-1.2	0.7	6.8	-3.1	2.5	0.6	-0.2	5.1
COc1ccc(CNC(=O)C(NC(C)=O)C(=O)Nc2ccc(C(C)C)cc2)cc1 (stereo not given)	-0.9	4.0	2.8	3.0	0.4	11.8	0.6	2.4
CCCCOc1ccc(C(=O)CCN2CCOCC2)cc1	6.5	16.1	3.0	-0.5	-2.4	3.5	-0.2	5.2
COc1ccc(OC)c(S(=O)(=O)Nc2ccccc2C)c1	-0.2	0.5	-0.9	2.8	8.2	0.9	1.2	-5.1
CC(C)(C)c1ccc(S(=O)(=O)NC(Cc2ccccc2)C(=O)O)cc1 (stereo not given)	1.3	-5.9	1.9	-5.9	-9.5	3.8	1.2	9.9

Structural class: those above containing a nitro group on carbon
SMILES	AHR act	MCL1-BIM inh	BCLXL inh	Fam108B counter	PME-1 primary	pPAFAH FP inh	MEX-5 binding	GLD-1 TGE inh
N/C(=N\OC(=O)CCCOc1ccccc1)c1ccc([N+](=O)[O-])cc1	0.3	2.4	2.0	-1.9	4.8	3.3	-2.4	-6.3
O=c1[nH][nH]c(-c2ccccc2O)c1C(C[N+](=O)[O-])c1ccc(Br)cc1 (stereo not given)	15.7	5.4	3.7	3.7	-0.4	11.5	-5.8	0.9

(further entries)
SMILES	AHR act	MCL1-BIM inh	BCLXL inh	Fam108B counter	PME-1 primary	pPAFAH FP inh	MEX-5 binding	GLD-1 TGE inh
O=C(OCc1cc(=O)n2ccsc2n1)C1(c2ccc(Cl)cc2)CC1	-3.1	8.2	4.0	.	-6.6	-3.8	.	-6.1
CC1(C)C2CCC1(CS(=O)(=O)NCc1ccc(C(F)(F)F)cc1)C(=O)C2 (stereo not given)	3.5	-1.4	4.2	5.0	1.3	6.1	0.6	4.0
O=C(O)c1ccc(OS(=O)(=O)c2ccc(Cl)s2)c(Cl)c1	-0.9	4.5	2.3	.	-5.9	4.4	.	-2.9
O=C(O)c1cnn(-c2nc(-c3ccc(F)cc3)cs2)c1C(F)(F)F	14.5	8.3	9.3	-0.2	-1.0	-2.2	1.9	2.9
COc1ccc([C@@H]2CC=C(C(=O)O)[C@H](c3ccc(Cl)cc3)N2S(=O)(=O)c2ccccc2C)cc1	-1.6	3.9	4.9	-2.8	-0.4	3.9	.	5.8
CC(CC(=O)N1CCN(S(=O)(=O)c2ccc(Cl)cc2)CC1)n1cncn1 (stereo not given)	1.5	3.8	5.5	-1.9	-3.6	3.0	-0.1	-1.1
CCOC(=O)Cn1c(=O)cc(C)c2cccc(C)c21	-0.1	6.2	6.0	0.5	5.5	1.4	1.2	3.7
Cc1cc(S(=O)(=O)N2c3ccc(F)cc3CCC2C)ccc1-n1cnnn1 (stereo not given)	2.7	7.5	6.9	2.0	9.9	0.0	-0.2	5.8
Cc1noc(C)c1-c1nc(CSc2ccc(Cl)cc2)no1	-3.2	7.9	3.5	2.7	-0.6	-3.6	-2.9	-0.6
CCN1C(=O)[C@H]2[C@H]3CN=C(SCc4ccc(Cl)cc4)N3[C@@](C)(C(=O)OC)[C@H]2C1=O	.	.	.	.	.	2.3	.	.
O=C(CSc1ccc2ccccc2c1)Nc1ccc(S(=O)(=O)Nc2nccs2)cc1	2.9	-6.8	-1.0	0.9	6.5	24.5	-5.7	2.6
CC1CCN(S(=O)(=O)c2cccc(C(=O)NC3CCCCC3)c2)CC1	0.7	3.4	1.2	3.8	4.5	1.1	-2.8	0.8
O=C(Nc1nnc(CC2=CCCCC2)s1)c1cccs1	9.5	0.5	-0.1	-4.2	-1.8	7.7	0.1	-3.9
CSCc1ccc(C(=O)NCCSc2ccc(Br)cc2)cc1	15.2	6.7	3.8	-6.1	-7.9	-1.4	1.0	0.9
COc1ccc(Cn2nnnc2CN(Cc2cc3ccc(C)cc3[nH]c2=O)C2CCCC2)cc1	6.3	0.3	-0.4	-3.8	-3.9	-6.2	-1.3	1.5
CCc1cccc(OCC(=O)Nc2ccc(C(=O)O)cc2NC(=O)COc2cccc(CC)c2)c1	2.8	4.7	7.2	-0.8	-1.6	8.8	0.6	4.0
Cc1ccc(N(C(=O)c2csnn2)C(C(=O)NC2CCCCC2)c2ccccn2)cc1 (stereo not given)	1.2	11.3	0.6	3.2	-1.1	2.5	0.5	6.7
O=C(CSc1ccc(Cl)cc1)NN=C1CCCCCC1	2.6	2.8	3.9	1.9	-1.5	1.7	1.1	-4.5
Cc1cc(-c2n[nH]c(=S)n2/N=C/c2cccc(O)c2)n[nH]1	4.4	-27.5	-32.1	-3.4	-1.1	4.5	-0.7	0.0
O=C(O)CC(NC(=O)C12CC3CC(CC(C3)C1)C2)c1ccc2c(c1)OCO2 (stereo not given)	-0.7	-8.1	4.2	1.6	-2.3	3.5	-0.3	0.2

Copied from the list:
For pPAFAH FP inh, CSCc1ccc(C(=O)NCCSc2ccc(Br)cc2)cc1 shows -1.4
For GLD-1 TGE inh, O=C(CSc1ccc2ccccc2c1)Nc1ccc(S(=O)(=O)Nc2nccs2)cc1 shows 2.6
For PME-1 primary, O=C(O)CC(NC(=O)C12CC3CC(CC(C3)C1)C2)c1ccc2c(c1)OCO2 (stereo not given) shows -2.3
For Fam108B counter, CC1CCN(S(=O)(=O)c2cccc(C(=O)NC3CCCCC3)c2)CC1 shows 3.8
For Fam108B counter, COc1ccc(Cn2nnnc2CN(Cc2cc3ccc(C)cc3[nH]c2=O)C2CCCC2)cc1 shows -3.8
For PME-1 primary, CCc1cccc(OCC(=O)Nc2ccc(C(=O)O)cc2NC(=O)COc2cccc(CC)c2)c1 shows -1.6

The results go on:
SMILES	AHR act	MCL1-BIM inh	BCLXL inh	Fam108B counter	PME-1 primary	pPAFAH FP inh	MEX-5 binding	GLD-1 TGE inh
CC(NC(=O)c1cccs1)c1ccc(Br)cc1 (stereo not given)	-0.1	3.0	3.3	-1.0	-1.8	-1.4	4.4	-2.0
Cc1ccc(SCc2nc(-c3ccccc3)no2)cc1	7.6	8.1	0.2	-0.6	-1.8	0.0	-0.6	0.1
CCN(c1ccc(Cl)cc1)S(=O)(=O)c1nnc(NC(=O)C(C)C)s1	.	.	.	.	.	.	1.9	.
O=C(OCC(=O)N1CCN(S(=O)(=O)c2ccc(Cl)cc2)CC1)C1CCC1	4.1	-3.5	0.5	2.6	4.7	1.6	-0.6	-0.2

Only part of the results is shown. The share of hits here may be higher or lower than overall.
